Source: PubChem BioAssay
D2 PAM – positive allosteric modulators of human D2 dopamine receptor; potentiation, % (concentration not given with the values); DiscoveRx D2 beta-arrestin cells, luminescence, 90 min; 100% = 57 uM dopamine signal; hit rate 0.23% among 360,000; AID 624464; P14416; active = potentiation of 50% or more; inconclusive = 30% to 50%; inactive = 30% or less;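 further: compound concentration not given in the record; tested on top of an EC20 dose of dopamine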
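PathHunter beta-arrestin assay in DiscoveRx D2 cells. Compounds were added with an EC20 of dopamine (50 nM final) for 90 min at 37 deg C. Luminescence was read 1 h after detection reagent, with 57 uM dopamine as the EC100 control.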
TRPV1 potentiator – enhances activation of the human vanilloid receptor TRPV1. Q8NER1. TRPV1-expressing cells, Fluo-8 calcium influx, capsaicin EC20 potentiation; host cell line not named in the record; control for the full effect not named in the record. AID 540277. potentiation, % at 8.33 µM. hit rate 0.02% among 320,000; active means potentiation above 80%; inconclusive means 30% to 80%; inactive means below 30%; further: 0% is about no effect
Target sequence (Q8NER1 whole entry, looked up): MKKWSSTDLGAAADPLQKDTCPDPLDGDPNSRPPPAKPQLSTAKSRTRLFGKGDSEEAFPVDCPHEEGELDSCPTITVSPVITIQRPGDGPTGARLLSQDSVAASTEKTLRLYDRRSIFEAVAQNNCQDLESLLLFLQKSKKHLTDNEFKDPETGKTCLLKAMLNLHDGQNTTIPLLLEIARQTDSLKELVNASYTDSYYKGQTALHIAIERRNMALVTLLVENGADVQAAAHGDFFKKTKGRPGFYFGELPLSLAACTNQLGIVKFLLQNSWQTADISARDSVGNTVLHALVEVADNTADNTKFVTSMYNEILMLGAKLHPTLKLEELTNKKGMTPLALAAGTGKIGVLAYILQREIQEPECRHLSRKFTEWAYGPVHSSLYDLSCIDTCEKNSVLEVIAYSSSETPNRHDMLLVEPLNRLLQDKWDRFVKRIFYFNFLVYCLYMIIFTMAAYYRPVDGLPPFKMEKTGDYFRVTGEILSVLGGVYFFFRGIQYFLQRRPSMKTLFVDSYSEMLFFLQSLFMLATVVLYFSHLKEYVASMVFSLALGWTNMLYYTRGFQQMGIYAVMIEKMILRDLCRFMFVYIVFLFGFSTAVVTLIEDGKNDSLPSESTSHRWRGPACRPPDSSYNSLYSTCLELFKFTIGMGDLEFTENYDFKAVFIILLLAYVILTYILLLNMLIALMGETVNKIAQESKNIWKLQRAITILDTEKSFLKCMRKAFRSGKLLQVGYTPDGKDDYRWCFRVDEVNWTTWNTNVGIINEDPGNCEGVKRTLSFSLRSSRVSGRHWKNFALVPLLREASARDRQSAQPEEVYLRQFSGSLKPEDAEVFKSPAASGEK
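Cells expressing TRPV1 were dye-loaded with Fluo-8 and read kinetically: 10 s baseline, 3 min after compound (agonist portion), then 2 min after EC20 capsaicin (allosteric enhancer portion). Calcium-bound dye fluorescence at 480/520 nm.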
ClpP mod – qHTS Assay for Activators of ClpP | ATP-dependent Clp protease proteolytic subunit (Bacillus subtilis (strain 168)), P80244 | purified B. subtilis ClpP, FRET peptide cleavage, 20 min | Potency, µM (titrated, usually from 57.5 µM), for the others: at the top dose activity change, negative = active | hit rate 1.9% among 340,000 | AID 651965, 2013; active = well fitted falling curve with a large enough effect; inconclusive = small, poorly fitted or top-dose-only effect; inactive = no such curve, though single readings can be large or run the other way; further: potency means the concentration at half of the fitted maximal effect; the source files actives as falling curves though it sought activators and does not explain the sign; nearly all actives have a fitted effect of over 65% in size; many hits overshoot -100%
Target sequence (P80244 whole entry, looked up): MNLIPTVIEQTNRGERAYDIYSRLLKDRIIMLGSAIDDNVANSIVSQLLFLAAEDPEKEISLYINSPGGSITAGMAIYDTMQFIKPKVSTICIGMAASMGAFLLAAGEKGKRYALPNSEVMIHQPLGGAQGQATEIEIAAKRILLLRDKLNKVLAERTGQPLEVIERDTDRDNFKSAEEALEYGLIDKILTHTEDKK
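FRET quenching reversal measured ClpP activation: 10 microg/mL B. subtilis ClpP at pH 8 with the FRET-FV decapeptide, read at 430 nm after 320 nm excitation. The 20-min minus 0-min signal was scaled between DMSO/no-enzyme wells and ADEP (5.8 microM final).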
gsp antag – antagonizes gsp, the McCune-Albright syndrome mutation; Potency, µM (series often up to 76.9 µM), inactives show at the highest dose activity change, negative = inhibition, most hits filed as inhibitors; gsp-mutant cells, cAMP HTRF, 30 min; control for the full effect not named in the record; AID 624288; hit rate 0.4% among 340,000; active = falling curve of any shape with a large fitted effect; inconclusive = falling curve, mostly with a smaller effect; inactive = flat or rising curve; cell line not stated here;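 further: intracellular cAMP measured with PDE inhibitor Ro 20-1724 present during compound exposure; potency means the concentration at half of the fitted maximal effect; on the % scale 0 is the no-effect control and ±100 the full control effect; nearly all actives have a fitted effect of over 65% in size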
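HTRF cAMP read-out (cAMP-d2 plus anti-cAMP antibody-K in lysis buffer, 30 min RT). Before lysis, cells are exposed to compounds with […] for 30 min at 37C in DPBS containing Ca/Mg, BSA and Tween 20.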
Menin MLL FP FL – inhibitors of human menin-MLL interaction, wild-type MLL peptide. Fluorescence polarization, fluorescein-MLL peptide displacement from menin. FP activity change, % at 61.4 µM. 290,000 tested, under 10 active. AID 1766; inconclusive = falling polarisation curve, or a change in total fluorescence; inactive = total fluorescence flat and polarisation flat or rising; no compound was filed as active; the % refers to the polarisation; negative = inhibition;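 further: % of control where 0% means no effect; inhibitors lower the polarisation; unlabelled MLL peptide was the positive control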
Sfp inh – Sfp phosphopantetheinyl transferase inhibition. AID 1490. Biochemical Sfp PPTase activity, qHTS. Q9F4F7. Potency, µM, for inactives: max response, negative = inhibition, usual class: inhibitors. hit rate 3.5% among 310,000; active means well fitted inhibition curve with a large enough effect; inconclusive means small, poorly fitted or top-dose-only effect, or another doubt; inactive means no such curve, though single readings can be large or run the other way;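 further: the enzyme is Sfp with the accession as filed and its product quenches rhodamine fluorescence; potency means the concentration at half of the fitted maximal effect; 0% = enzyme reaction without inhibitor and -100% = no enzyme wells; top concentration of the series not given in the record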
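Fluorescence-quenching assay: 15 nM Sfp-PPTase preincubated 15 min at room temperature with compound, then 5 uM rhodamine-CoA and 12.5 uM BHQ-2-labelled YbbR peptide added. Fluorescence (ex 525/em 598 nm) read at start and after 30 min; difference gives rate.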
gsp agonist – agonists of gsp mutant (McCune-Albright syndrome). hit rate 0.13% among 340,000. Potency, µM (titrated, usually from 76.9 µM), for inactives: top-dose activation (cAMP increase), actives largely listed as activators. AID 624287. gsp mutant cells, cAMP HTRF, 30 min; control for the full effect not named in the record; active = well fitted activation curve with a large enough effect; inconclusive = small, poorly fitted or top-dose-only effect, or another doubt; inactive = no such curve, though single readings can be large or run the other way; cell line not stated here;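 further: phosphodiesterase inhibitor Ro 20-1724 added with compounds to block cAMP breakdown; potency means the concentration at half of the fitted maximal effect; nearly all actives have a fitted effect of over 60% in size; about a fifth of the inactives were tested at one dose only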
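Cells in DMEM/10% FBS with G418 were pretreated with compounds in DMSO plus […] (300 uM stock) for 30 min at 37C. cAMP was measured by HTRF (cAMP-d2 plus anti-cAMP antibody-K) after 30 min at room temperature.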
* hit, by the source's call; ? = inconclusive; · = no result given; [ ] = remark or other dose.

Below each SMILES – D2 PAM | TRPV1 potentiator | ClpP mod | gsp antag | Menin MLL FP FL | Sfp inh | gsp agonist
O=C1NC(=Nc2ccc(F)cc2)SC1Cc1ccc(F)cc1 (stereo not given)
    -1 | -10 | · | -2% | 4.2 | 14% | -12%
COc1ccc(OC)c(Cc2nnc(CCC(=O)N3CCCCC3)o2)c1
    -5 | 3 | -0.7% | -10% | -0.5 | 2% | 3%[15.4 µM]
CCN(CC)CC(=O)N1CCCC(C(=O)c2ccccc2OC)C1 (stereo not given)
    -5 | -1 | -4.6% | 3% | 0.2 | 21% | -82%[inhibitor]
CCOC(=O)CSc1nc2ccccc2c(=O)n1CC(C)C
    -4 | -7 | · | -20% | -0.1 | 9% | 19%[15.4 µM]
O=P(O)(CCc1ccccn1)CN1CCOCC1
    0 | · | -1.8% | 8% | 1.7 | -6% | 16%
CC1CC(=O)Nc2ccccc2N1S(=O)(=O)c1ccc(Br)cc1 (stereo not given)
    -7 | 1 | 0.9% | -2% | 8.7 | 10% | 8%
CC(C)CNc1nc(N)c([N+](=O)[O-])c(NC2CCCCC2)n1
    -2 | 8 | -0.8% | 12% | -2.6 | 8% | 4%
O=C(NCCCN1CCOCC1)c1sc2cc([N+](=O)[O-])ccc2c1Cl
    2 | 2 | · | -7% | 1.6 | 0.89µM* | 3%[15.4 µM]
Cc1c(/C=N/NC(=O)c2cccs2)c2ccccc2n1Cc1ccccc1Cl
    -3 | -11 | · | -2% | 6.1 | 3% | -4%[15.4 µM]
CC1Cc2cc(/C(O)=C3/C(=O)C(=O)N(Cc4ccco4)C3c3cccs3)ccc2O1 (stereo not given)
    ? | 2 | -0.7% | 5% | 1.0 | 28µM* | 0%
CCN(Cc1ccccc1)C(=O)CCS(=O)(=O)c1ccc2c(c1)NC(=O)CO2
    -7 | -16 | 0.1% | 5% | ? | 9% | ?
Cc1nc2ccc(S(=O)(=O)NCC(=O)NC(C)c3ccccc3)cc2s1 (stereo not given)
    -4 | 3 | 1.6% | 8% | 0.3 | 17% | 7%
O=C(OCc1cc2ccccc2[nH]c1=O)c1cccs1
    -4 | 6 | -11% | -18% | 0.7 | 8% | 25%
O=C(NN1C(=O)C2CCCCC2C1=O)c1ccco1 (stereo not given)
    -15 | 7 | -2.2% | -4% | 1.0 | 1% | 2%
O=S(=O)(Nc1nc2ccccc2nc1N1CCN(c2ccccc2F)CC1)c1ccc(Cl)cc1
    -7 | 5 | -5.9% | ? | 2.5 | -8% | -36%[inhibitor]
CC(=O)c1cccc(NC(=O)N2CCCC2C(=O)Nc2cccc(C)c2)c1 (stereo not given)
    -13 | 5 | 0.1% | 10% | 3.3 | 4% | 3%[15.4 µM]
O=C(O)COc1ccccc1/C=N/NC(=O)CSc1nnc(-c2ccc(Cl)cc2)n1C1CCCCC1
    -13 | -4 | -0.9% | 7% | 0.1 | 16% | -5%
N=C1/C(=C\c2coc3ccccc3c2=O)C(=O)N=C2SC(c3ccncc3)=NN12
    2 | -18 | · | ? | ? | -19% | -1%[15.4 µM]
CCCc1nn2c(=O)cc(CSCC(=O)Nc3ccccc3OC)nc2s1
    -3 | 0 | · | -5% | -5.1 | -4% | 15%
Cc1ccnc(NC(=O)C2CCN(S(=O)(=O)c3ccc4ccccc4c3)CC2)c1
    29 | 3 | -5.1% | -6% | · | · | -82%[inhibitor]
CCc1cc(=O)oc2c(C)c(OCC(=O)NCCCN3CCOCC3)ccc12
    -8 | 11 | 3.6% | -2% | · | 13% | ?
CC1CCCC(C)N1C(=O)COC(=O)c1ccc(O)cc1 (stereo not given)
    -21 | ? | 0.9% | 24% | 7.1 | -9% | 9%
CCC12CN3CCN(CC(C3)/C1=N\NC(=O)c1ccc(F)cc1)C2
    -8 | 2 | · | 0% | -1.3 | -9% | 14%[15.4 µM]
S=C(Nc1ccc(Cl)cc1Cl)Nc1ccccc1Oc1ccccc1
    -13 | 5 | -0.8% | -4% | -0.2 | ? | -1%
O=c1c2cc(N3CCOCC3)ccc2[nH]c(=S)n1CC1CCCO1 (stereo not given)
    0 | 10 | 1.2% | -9% | 2.0 | ? | -2%
CC(=O)O[C@H]1CSC[C@H]1NC(=O)c1ccccc1
    -6 | 21 | 1.5% | -14% | · | 13% | -30%
CC(=O)Nc1nc2ccccc2n1Cc1ccccc1C
    6 | -17 | -0.1% | -15% | 1.0 | 5% | 0%
COc1cc2c(ccc3cc(OC)c(OC)c(O)c32)cc1O
    4 | 6 | -19% | 6% | 0.2 | -7% | ·
Cc1c(C(=O)N2CCCCC2)nnn1-c1nonc1N
    -8 | 8 | -0.1% | -5% | 2.9 | 8% | -1%
S=C(NCc1ccco1)N1CCN(c2ccc(Cl)cc2)CC1
    -1 | 0 | · | -5% | -6.3 | 7% | ?
O=C(CN1C(=O)c2ccccc2C1=O)OCC(=O)c1ccc(F)cc1
    -18 | 6 | 1.7% | -13% | · | · | -5%
NNC(=O)COc1ccccc1F
    6 | 5 | 0.4% | 12% | 6.3 | 0% | 5%
O=C(Nc1cccnc1)C12CC3CC(CC(C3)C1)C2
    -1 | -15 | -3.9% | 1% | 0.8 | 17% | -1%[15.4 µM]
CC(Sc1ncccn1)C(=O)NC1CCCC1 (stereo not given)
    -8 | 1 | -2.4% | 13% | · | · | -39%[inhibitor]
O=C(COc1coc(CN2CCN(c3ccccc3F)CC2)cc1=O)N1CCc2ccccc21
    7 | 11 | -1.3% | 3% | · | · | 28%
Cc1ccccc1NC(=O)Cc1nc(COC(=O)c2cc(Cl)ccc2O)cs1
    10 | 5 | 3.6% | -23% | · | 10% | 15%
CC(C)c1nnc(NC(=O)CN(C)S(=O)(=O)c2ccc3c(c2)OCCO3)s1
    -5 | 3 | 0.9% | 9% | 2.5 | 16% | 11%
O=C(O)c1cccnc1SC1CC(=O)N(c2ccc(OC(F)F)cc2)C1=O (stereo not given)
    0 | -2 | · | 6% | 2.0 | 4% | -33%[15.4 µM]
COc1cccc(C(=O)Nc2ccccc2OC(F)(F)F)c1
    -7 | 12 | 1.7% | -5% | 2.9 | 16% | -2%
CCCCc1c(O)nc(SCC(=O)NC(C)(C)C)n(-c2ccccc2C)c1=O
    -21 | 9 | -2.8% | -17% | -2.1 | -20% | -51%[inhibitor]

Ordered by SMILES length (rising): some entries from above
Below each SMILES – D2 PAM | TRPV1 potentiator | ClpP mod | gsp antag | Menin MLL FP FL | Sfp inh | gsp agonist
CC(Sc1ncccn1)C(=O)NC1CCCC1 (stereo not given)
    -8 | 1 | -2.4% | 13% | · | · | -39%[inhibitor]
COc1cc2c(ccc3cc(OC)c(OC)c(O)c32)cc1O
    4 | 6 | -19% | 6% | 0.2 | -7% | ·
O=C(CN1C(=O)c2ccccc2C1=O)OCC(=O)c1ccc(F)cc1
    -18 | 6 | 1.7% | -13% | · | · | -5%

Carrying on.
molecule | D2 PAM | TRPV1 potentiator | ClpP mod | gsp antag | Menin MLL FP FL | Sfp inh | gsp agonist
CC(=O)c1ccc(NC(=O)NCc2ccc(F)cc2)cc1 | -6 | -8 | · | -6% | 0.1 | 10% | 19%
C=CC(=O)OCCOCCOCCOCCOC(=O)C=C | -4 | -3 | 0.6% | ? | · | · | ·
CCOC(=O)C1=C(c2ccccc2)NC(=O)NC1c1ccsc1 (stereo not given) | 0 | 1 | · | 5% | -1.2 | 8% | -49%[inhibitor]
Cc1ccc(OCC(=O)Nc2ccc3c(c2)nc(CCN2CCC(C)CC2)n3C)cc1 | -39 | 9 | -3.5% | -17% | -0.2 | 19% | ?
Cc1ccc(S(=O)(=O)Nc2cccc(C(=O)NCc3ccc(S(N)(=O)=O)cc3)c2)cc1 | -2 | 7 | -2.6% | 8% | -0.2 | 3% | 0%
CC1(C(=O)NC2CCCCCCC2)CCC(=O)N1Cc1cccs1 (stereo not given) | -1 | 1 | -0.7% | -6% | 1.3 | -4% | 20%
CN(C)c1ccc(/C=C/C(=O)c2c(O)c3ccccc3oc2=O)cc1 | 2 | -1 | · | 1% | ? | ? | 5%[15.4 µM]
CC(=O)c1ccc(OCCCC(=O)Nc2ccc(C)c(S(=O)(=O)N3CCCCC3)c2)cc1 | -16 | -5 | · | ? | · | · | 2%[15.4 µM]
COc1ccc(C2CC(c3cccs3)=NN2C(=O)CSc2nnc(N)s2)cc1OC (stereo not given) | -4 | -8 | -1.0% | -7% | -2.7 | -5% | -19%[15.4 µM]
C=CCn1c(SCC(C)=O)nc2scc(-c3ccco3)c2c1=O | 0 | 16 | · | 3% | 18 | 7.1µM* | -12%
COc1ccc(-c2nc(C#N)c(NCc3cccnc3)o2)cc1OC | -3 | -5 | 28µM* | 8% | 1.1 | 15% | -87%[inhibitor]
O=C(O)COc1ccc(NC(=O)C(c2ccccc2)c2ccccc2)cc1 | -15 | -7 | -3.3% | 4% | -2.9 | 11% | -8%
COc1ccc(NC(=O)CSc2nc(C)cc(C(F)(F)F)n2)cc1 | -10 | 11 | -1.1% | 2% | 1.8 | 13% | 11%

Given field by field: entries from further up
> COc1ccc(C2CC(c3cccs3)=NN2C(=O)CSc2nnc(N)s2)cc1OC (stereo not given)
  D2 PAM = -4; TRPV1 potentiator = -8; ClpP mod = -1.0%; gsp antag = -7%; Menin MLL FP FL = -2.7; Sfp inh = -5%; gsp agonist = -19%[15.4 µM]
> C=CCn1c(SCC(C)=O)nc2scc(-c3ccco3)c2c1=O
  D2 PAM = 0; TRPV1 potentiator = 16; ClpP mod = ·; gsp antag = 3%; Menin MLL FP FL = 18; Sfp inh = 7.1µM*; gsp agonist = -12%
